Source: PubChem (National Center for Advancing Translational Sciences (NCATS))
VDR inh: blocks the human vitamin D receptor | P11473 | VDR-SRC2-3 peptide fluorescence polarization, 2 h | Potency, µM, without a hit: max response, negative = inhibition, hits mostly inhibitors | hit rate 0.93% among 400,000; active means well fitted inhibition curve with a large enough effect; inconclusive means small, poorly fitted or top-dose-only effect, or another doubt; inactive means no such curve, though single readings can be large or run the other way; further: series mostly up to about 120 µM
Target sequence (P11473 whole entry, looked up): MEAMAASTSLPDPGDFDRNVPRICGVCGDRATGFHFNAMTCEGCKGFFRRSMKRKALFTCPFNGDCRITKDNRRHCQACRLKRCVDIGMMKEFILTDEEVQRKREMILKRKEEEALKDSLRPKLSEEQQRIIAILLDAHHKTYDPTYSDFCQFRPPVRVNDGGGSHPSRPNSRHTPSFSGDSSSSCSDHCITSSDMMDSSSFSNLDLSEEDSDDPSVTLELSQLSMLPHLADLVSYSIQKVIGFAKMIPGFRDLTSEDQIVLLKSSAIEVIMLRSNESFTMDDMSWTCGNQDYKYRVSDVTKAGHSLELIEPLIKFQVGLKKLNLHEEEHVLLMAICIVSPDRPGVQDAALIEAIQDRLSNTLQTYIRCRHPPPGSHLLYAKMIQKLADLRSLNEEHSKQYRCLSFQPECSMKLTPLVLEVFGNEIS
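Reagent solutions, kept cold and dark, are dispensed first; compounds are then pinned in at 23 nl, plates briefly spun, and incubated 2 h at ambient temperature. Inhibition of VDR–SRC2-3 peptide binding is read by fluorescence polarization.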
Active calls of the source: *; ? = inconclusive; & = joins results of further samples. On the % scale 0 is the no-effect control and ±100 the full control effect; potency means the concentration at half of the fitted maximal effect.

nr	SMILES	VDR inh
1	CC(=O)O[C@@H]1C[C@@]2(C)C(c3ccoc3)C[C@H]3O[C@]32[C@]2(C)C(=O)C(O)=C3C(C)(C)C(=O)C=C[C@]3(C)C12 (some centres not stated)	14µM*
2	CN(C(=O)Cc1ccc(Cl)c(Cl)c1)[C@H](CN1CCCC1)c1ccccc1	?
3	CN1CN=C(N[N+](=O)[O-])N(Cc2ccco2)C1	?
4	CC(=O)[C@H]1CC[C@H]2[C@@H]3CC=C4C[C@@H](OS(=O)(=O)O)CC[C@]4(C)[C@H]3CC[C@]12C	-24%
5	c1ccc2c(CCNC3CCCCC3)c[nH]c2c1	10%
6	CCN(CC)P(=O)(Oc1cccc(C)c1)N(CC)CC	7%
7	COc1ccc2c(c1O)-c1c(OC)c(OC)cc3c1[C@H](C2)N(C)CC3	-4%&9%
8	CCn1c(O)c(/C=N/NC(=O)c2ccccc2)c(=O)[nH]c1=S	-12%
9	O=C1OCCN1P(=O)(c1ccccc1)c1ccccc1	11%
10	CC1=CC(c2ccccc2)NC(=S)N1 (configuration not stated)	79µM*
11	C=CCN1CC[C@]23CCCCC2[C@H]1Cc1ccc(O)cc13 (some centres not stated)	-3%&-12%
12	O=P(O)(O)/C=C(\Cl)c1ccccc1	-17%
13	C[C@]12C[C@@H](O)[C@H](O)CC1=CCC1C2CC[C@@]2(C)C1CC[C@@H]2O (some centres not stated)	8%
14	Cc1ccccc1-c1nn2c(=O)cc(CN3CCN(C(=O)COc4ccccc4Cl)CC3)nc2s1	2%
15	N=C(N)c1c(O)n(C2CCCCC2)c(=O)n(C2CCCCC2)c1=O	3%
16	CNc1cc(N2CCNCC2)ccc1[N+](=O)[O-]	12%
17	COc1ccc2c3c1O[C@H]1[C@@H](O)C=C[C@H]4C(C2)NCCC341 (some centres not stated)	-12%
18	c1ccc(CNC2=NCCS2)cc1	-9%
19	Cc1ccc(NP(=O)(c2ccccc2)c2nc3ccccc3s2)cc1 (configuration not stated)	-16%
20	Cn1cccc1/C=C1\C(=O)NC(=O)N(CCC2=CCCCC2)C1=O	0%
21	CCNC(=O)C1OC(n2cnc3c(N)ncnc32)C(O)C1O (configuration not stated)	-5%
22	COc1cc2c(c(OC)c1OC)-c1ccc(O)cc1[C@@H](NC(C)=O)CC2	-27%
23	O=C(COC(=O)Cc1ccccc1)Nc1ncc(Cl)cc1Cl	14%
24	O=C1CC(=O)N(Cc2ccccc2)C(=O)N1	?
25	O=P(Nc1ccccc1)(Nc1ccccc1)Oc1ccccc1	-19%

Filtered by structure, the compounds so far containing a carbonyl joined to an NH by a bond outside any ring
nr	SMILES	VDR inh
8	CCn1c(O)c(/C=N/NC(=O)c2ccccc2)c(=O)[nH]c1=S	-12%
21	CCNC(=O)C1OC(n2cnc3c(N)ncnc32)C(O)C1O (configuration not stated)	-5%
22	COc1cc2c(c(OC)c1OC)-c1ccc(O)cc1[C@@H](NC(C)=O)CC2	-27%
23	O=C(COC(=O)Cc1ccccc1)Nc1ncc(Cl)cc1Cl	14%

The list goes on.
nr	SMILES	VDR inh
26	[N-]=[N+]=NCc1cn2cccnc2n1	11%
27	CC(=O)N1CCC(N2CCCC(C(=O)c3cccc(Cl)c3)C2)CC1 (configuration not stated)	16%
28	Cc1cccc(OCC(=O)N2CCN(Cc3ccncc3)CC2)c1	6%
29	CC(n1cc(C[C@H](N)C(=O)O)c2ccccc21)n1cc(C[C@H](N)C(=O)O)c2ccccc21	?
30	CCOc1ccccc1-n1c(O)c(C=NCCCN(CC)CC)c(=O)[nH]c1=O	10%
31	Cc1ccc2c(c1)CC1(CN2C)C(=O)NC(=O)N(CCC2=CCCCC2)C1=O (configuration not stated)	7%
32	O=C1C2C3CCC(O3)C2C(=O)N1CCO (configuration not stated)	-5%
33	CCn1c(O)c(N=Nc2ccc(S(=O)(=O)N3CCOCC3)cc2)c(=O)n(CC)c1=S	-15%
34	COc1ccc2c(c1O)C13CCN(C)C(C2)C1CCC(=O)C3 (configuration not stated)	2%
35	CN(CCc1ccc(Cl)c(Cl)c1)[C@H]1CCCC[C@H]1N1CCCC1	?
36	CNCC1(c2ccccc2)CCCC1	4%
37	Nc1ncnc2c1nc(Sc1ccc(Cl)cc1)n2[C@@H]1O[C@@H]2COP(O)(=S)O[C@H]2[C@H]1O (some centres not stated)	-7%
38	CCC(=NCC1CCCO1)c1c(O)n(-c2ccc(Cl)cc2)c(=O)[nH]c1=O (configuration not stated)	7%
39	COc1ccc2c(c1)[C@@]13CCC=C[C@H]1[C@@H](C2)NCC3	-10%
40	COC(=O)C1=C(c2ccc(F)cc2F)C[C@@H]2CC[C@H]1N2C(=O)NC(C)C	-6%
41	O=C(C1CCCN(c2nnc(-n3cccc3)s2)C1)N1CCC2(CC1)OCCO2 (configuration not stated)	-4%
42	CN(C)CCc1ccc(O)cc1	3%&-20%
43	CC(=O)O[C@@]12CO[C@@H]1C[C@H](OC1OCC(O)C(O)C1O)[C@@]1(C)C(=O)[C@H](O)C3=C(C)[C@@H](OC(=O)[C@H](O)[C@@H](NC(=O)c4ccccc4)c4ccccc4)C[C@@](O)([C@@H](OC(=O)c4ccccc4)C12)C3(C)C (some centres not stated)	-8%
44	Cc1c(NP(=S)(C(C)(C)C)C(C)(C)C)c(=O)n(-c2ccccc2)n1C	1%
45	Fc1ccc2c(c1)nnn2C1CCN(Cc2nnnn2C2CCCCC2)CC1	-1%
46	Cc1ccc(Cn2nnnc2CN2CCC(n3nnc4cc(C(F)(F)F)ccc43)CC2)cc1	-3%
47	CCCCn1c(O)c(C(CC)=NCc2ccc(F)cc2)c(=O)[nH]c1=O	-4%
48	O=S(=O)(c1ccccc1)N1CN2CCN(C2)C1	-20%
49	CN1CCN(Cc2ccc(OC(F)(F)F)cc2)CC1	17%
50	Cc1ccc(-n2c(-c3ccc([N+](=O)[O-])cc3)nc3ccccc3c2=O)cc1	-7%
51	CCCCC/C=C\C/C=C\C/C=C\C/C=C\CCCC(=O)OCCN	?
52	CC1C2Cn3c(nc4ccccc43)C1N(C)O2 (configuration not stated)	-5%
53	OC(c1ccccc1)(c1ccccc1)C1CCCN1 (configuration not stated)	1%
54	CCN1CCN(C(=O)COc2ccc(S(=O)(=O)N3CCOCC3)cc2C)CC1	-5%
55	CC(C)c1ccc(-n2c(O)c(C=NC(CCS(C)=O)C(=O)O)c(=O)[nH]c2=S)cc1 (configuration not stated)	-4%
56	COc1ccccc1N1CCN(Cc2ccccc2)CC1	-17%
57	COc1cccc(OCc2cc(C(=O)N3C[C@H]4C[C@@H](C3)c3cccc(=O)n3C4)no2)c1	2%
58	CC(=O)c1cccc(NC2=NCC(C)S2)c1 (configuration not stated)	-4%
59	CCOC(=O)c1cn2nc(OP(=S)(OCC)OCC)cc2nc1C	-27%
60	O=C(CN1CCCCC1)Nc1ccc(Br)cc1C(=O)c1ccccc1Cl	-7%
61	CCN(CC)C(=O)c1ccc(NC(=O)c2cccc(S(=O)(=O)N3CCN(Cc4ccccc4)CC3)c2)cc1	-10%
62	O=c1[nH]c(=S)n(-c2ccccc2)c(O)c1C=NCCN1CCNCC1	16%
63	N[C@]1(C(=O)O)CC[C@@H](C(=O)O)C1 (racemic)	1%&4%
64	C[C@]12Cc3cn4c(nc3C=C1CCC1C2CC[C@@]2(C)[C@H]1CC[C@@]2(O)C#N)nc1ccccc14 (some centres not stated)	?
65	COc1ccc(NC(=O)[C@@H](NC(=O)N2C[C@H]3C[C@@H](C2)c2cccc(=O)n2C3)C(C)C)cc1	-4%
66	O=C(/C=C/c1ccc(F)cc1)NC(=S)N1C[C@H]2C[C@H](C1)c1cccc(=O)n1C2	-12%
67	COCCNC(=O)c1c(NC(=O)c2ccc(Br)o2)n(Cc2ccccc2)c2nc3ccccc3nc12	?
68	CC1=C(C/C(C)=C/c2ccccc2)/C(=C/CO)[C@H](O)[C@](C)(O)C12CC2	-18%
69	CCN1CCN(c2ccc(N)cc2)CC1	-6%
70	COc1ccc(CCn2c(O)c(C=Nc3ccc(NC(C)=O)cc3)c(=O)[nH]c2=O)cc1OC	6%
71	Clc1cc(Cl)cc(NC2=NCCS2)c1	-13%
72	O=P1(Oc2ccccc2)CC=CC(COC(c2ccccc2)(c2ccccc2)c2ccccc2)O1 (configuration not stated)	-16%
73	O=C(Nc1ccccc1)N1Cc2ccccc2-n2nncc2C1	-6%
74	C=CCn1c(O)c(C(C)=Nc2ccc3c(c2)CCC3)c(=O)[nH]c1=O	-18%
75	O=C1NC(=O)N(c2ccc(F)cc2)C(=O)/C1=C/c1ccsc1	?

(cont.)
nr	SMILES	VDR inh
76	CN1CCN(c2nc(N)c(Br)c(Cl)n2)CC1	-4%
77	O=c1[nH]c(=O)n(CCC2=CCCCC2)c(O)c1/C=N/Nc1ccccc1	?
78	Cc1ccc(-c2nc3ccccc3c(=O)n2-c2cc(C)ccn2)cc1	1%
79	COc1ccccc1NC(=O)COC(=O)c1cn(C)c2ccccc12	0%
80	CCOc1cc(-c2nc3c(C)cccn3c2NCC2CCCO2)ccc1O (configuration not stated)	7%
81	COC(=O)C1=C(c2cccc(OCc3ccccc3)c2)C[C@@H]2CC[C@H]1N2C(=O)NCc1ccc(Cl)cc1	-11%
82	C[C@@]12CC[C@H](O)C[C@@H]1CC[C@H]1[C@H]2CC[C@@]2(C)[C@@H](C3=CC(=O)OC3)CC[C@]12O	0%
83	Cn1c(N2CCNCC2)nc2ccccc21	14%
84	COC(=O)C1=C(c2c(C)noc2C)C[C@@H]2CC[C@H]1N2C(=O)NCCOc1ccccc1Cl	-11%
85	COc1ccc(-n2c(-c3ccccc3Br)nc3ccccc3c2=O)cc1	4%
86	CC(C)CCn1c(=O)c(C(=O)NCc2ccco2)c(O)c2ccccc21	10%
87	COc1cc(OC)c(OC)cc1CNCCc1cccc(F)c1	1%
88	C[C@]12CCC(OC(=O)CCC(=O)O)CC1=CCC1C2CC[C@]2(C)C(=O)CCC12 (some centres not stated)	-2%
89	CNC(C(=O)c1ccccc1)C(OC)c1ccc(C)cc1 (configuration not stated)	-12%
90	O=C1NC(=O)N(Cc2ccccc2)C(=O)/C1=C/c1cnc(-c2ccccc2)nc1	25µM*
91	CCCCC(=O)C1C(=O)NC(=O)NC1=O	-1%
92	c1ccc2c(N3CCNCC3)cccc2c1	-8%&-15%
93	Oc1ccc2c3c1OC1c4oc5ccccc5c4C[C@@]4(O)[C@@H](C2)N(CC2CC2)CC[C@]314 (some centres not stated)	-5%
94	CCC(=O)c1cn(Cc2ccccc2)c2ccccc12	11%
95	CCCCCn1c(=O)c(C(=O)Nc2nc(CC(=O)OCC)cs2)c(O)c2ccccc21	8%
96	N#Cc1cn(C2OC(CO)C(O)C2O)c2ncnc(N)c12 (configuration not stated)	-9%
97	Cc1oc(-c2ccc(Cl)cc2)nc1CS(=O)CC(=O)N1CCC2(CC1)OCCO2 (configuration not stated)	-13%
98	Cc1nn(Cc2ccccc2)c(C)c1C(=O)OCC(=O)Nc1cccc(S(N)(=O)=O)c1	0%
99	COc1ccc(-c2nc3ccc(C(=O)N4CCC5(CC4)OCCO5)cc3nc2-c2ccc(OC)cc2)cc1	18%
100	CCC(C)NC(=O)CN1C(=O)CN=C(c2ccccc2)c2ccccc21 (configuration not stated)	-10%
101	O=C1NC(=O)C(Cc2ccccc2)(Cc2ccccc2)C(=O)N1	-19%
102	CC1CC[C@@]2(NC1)O[C@@H]1C[C@H]3C4CC=C5C[C@@H](O)CC[C@]5(C)C4CC[C@]3(C)[C@H]1[C@@H]2C (some centres not stated)	12%
103	CC12CCC3C(CC=C4CC(O)CCC43C)C1CC(=CN1CCOCC1)C2=O (configuration not stated)	7%
104	COC(=O)C1=C(c2ccccc2)C[C@@H]2CC[C@H]1N2C(=O)N1CCOCC1	-15%
105	CCC(=O)O[C@H]1CC[C@H]2[C@@H]3CCC4=CC(=O)CC[C@]4(C)[C@H]3CC[C@]12C	-21%
106	C(=NC12CN3CN(CN(C3)C1)C2)c1cccs1	7%
107	O=C1NC(=O)C(Nc2ccc(Cl)c(Cl)c2)C(=O)N1	40µM*
108	Nc1ccc2cc(Br)ccc2c1	-3%
109	COc1cccc(-n2c(=S)[nH]c3ccccc3c2=O)c1	-24%
110	CC(N)Cc1c[nH]c2ccc(O)cc12 (configuration not stated)	8%&4%
111	O=c1[nH]c(=S)n(C2CC2)c(O)c1C=Nc1cccc(C(F)(F)F)c1	17%
112	Cn1c(O)c(C=Nc2ccc(Br)cc2)c(=O)n(C)c1=O	-21%
113	CCOC(=O)/C(=N\Nc1ccccc1)N1CC1	13%
114	CCOc1ccc(/C=C2/C(=O)NC(=O)N(CCc3ccc(F)cc3)C2=O)cc1	79µM*
115	Cc1ccc2c(c1)C1CN(C)CCC1N2C(=O)COc1ccc(S(=O)(=O)N2CCOCC2)cc1 (configuration not stated)	?
116	O=C(c1cc(C(=O)NCc2ccc(Cl)cc2)c(=O)n(Cc2ccc(Cl)cc2)c1)c1cc(F)ccc1O	-12%
117	CCN1CCN(C(=O)Cc2coc3ccc4ccccc4c23)CC1	3%
118	CC1CC2CC(=O)C3CCCN4CCCC2[C@]34C1 (some centres not stated)	3%
119	C=CCn1c(O)c(C(CC)=NCCC2=CCCCC2)c(=O)[nH]c1=O	-4%
120	CCN(CC)c1ccc(N=Cc2c(O)n(CCc3ccc(OC)c(OC)c3)c(=O)[nH]c2=O)cc1	?
121	CN1CCN(c2ccc(N)cc2Cl)CC1	?

Structural class, the compounds so far with a COOH group.
nr	SMILES	VDR inh
29	CC(n1cc(C[C@H](N)C(=O)O)c2ccccc21)n1cc(C[C@H](N)C(=O)O)c2ccccc21	?
55	CC(C)c1ccc(-n2c(O)c(C=NC(CCS(C)=O)C(=O)O)c(=O)[nH]c2=S)cc1 (configuration not stated)	-4%
63	N[C@]1(C(=O)O)CC[C@@H](C(=O)O)C1 (racemic)	1%&4%
88	C[C@]12CCC(OC(=O)CCC(=O)O)CC1=CCC1C2CC[C@]2(C)C(=O)CCC12 (some centres not stated)	-2%

The list is partial. The share of hits here may be higher or lower than overall.
